VDR inhibitor = blocks the human vitamin D receptor; Potency, µM, without a hit: max response, negative = inhibition, usual class: inhibitors; VDR-SRC2-3 peptide fluorescence polarization, 2 h; 400,000 compounds, 0.93% hits; P11473; active = well fitted inhibition curve with a large enough effect; inconclusive = small, poorly fitted or top-dose-only effect, or another doubt; inactive = no such curve, though single readings can be large or run the other way; also: series mostly up to about 120 µM
Target sequence (P11473 whole entry, looked up): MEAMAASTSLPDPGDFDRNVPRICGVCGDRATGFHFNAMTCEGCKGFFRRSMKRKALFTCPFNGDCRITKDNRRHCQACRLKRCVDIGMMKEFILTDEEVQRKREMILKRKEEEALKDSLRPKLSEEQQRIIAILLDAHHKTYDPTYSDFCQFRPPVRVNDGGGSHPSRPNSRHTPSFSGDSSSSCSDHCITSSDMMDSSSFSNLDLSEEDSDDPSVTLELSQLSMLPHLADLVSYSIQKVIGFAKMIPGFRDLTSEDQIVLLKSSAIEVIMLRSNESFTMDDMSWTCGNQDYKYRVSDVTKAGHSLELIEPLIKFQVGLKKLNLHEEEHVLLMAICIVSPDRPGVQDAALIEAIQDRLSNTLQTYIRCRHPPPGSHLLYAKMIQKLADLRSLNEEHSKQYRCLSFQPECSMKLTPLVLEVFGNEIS
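Reagent solutions, kept cold and dark, are dispensed first; compounds are then pinned in at 23 nl, plates briefly spun, and incubated 2 h at ambient temperature. Inhibition of VDR–SRC2-3 peptide binding is read by fluorescence polarization.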
The depositor's hits bear a star; ? = inconclusive; & = joins results of further samples. % is scaled to controls: 0 for no effect and ±100 for the full control effect; potency is read from the fitted curve at half-maximal effect. The list is partial; count on the stated rates, not on these rows.

SMILES | VDR inhibitor
CCOP(=O)(OCC)c1nc(/C=C/c2ccccc2)oc1NCc1ccccc1 | 10%
CCCSc1ncc(Cl)c(C(=O)N(Cc2ccc(N(C)C)cc2)C2CCS(=O)(=O)C2)n1 (stereo unspecified) | 14%
Cc1ccc[n+](CC(=O)c2ccc(Cl)cc2)c1 | -21%
CCCCCC1CCC(c2ccc(C(N)=O)cc2)CC1 (stereo unspecified) | -7%
CC1Cc2ccccc2N1C(=O)c1cnc2n(c1=O)CCS2 (stereo unspecified) | 12%
Cc1ccc(CNC(=O)CCn2c(=O)oc3ccccc32)cc1 | 1%
O=C(Nc1cccc(Cl)c1)N(CCN1CCOCC1)Cc1cccc(Cl)c1 | -1%
CCOc1ccccc1N1CCN(C(=O)C2=CC=CN3CCS(=O)(=O)N=C23)CC1 | 8%
CCOc1ccc(NC(=O)CN2C(=O)NC3(CCCC3)C2=O)cc1S(=O)(=O)N1CCCCC1 | -2%
O=C(Nc1ccnn1C1CCN(C2CCC2)CC1)c1cccc(F)c1 | -6%
COC(=O)C(NC(C)=O)(Nc1cccc(C)n1)C(F)(F)F (stereo unspecified) | 10%
O=C1C=C(Nc2cccc3cccnc23)c2ccccc2C1=O | ?
CCOC(=O)CNc1nc(Cl)nc(Nc2ccc(OC)cc2OC)n1 | 1%
O=C(c1ccccc1)c1ccc2nc(-c3ccc(NC(=O)c4ccccc4Br)cc3)[nH]c2c1 | 7%
COc1cc(CC2C(=O)Nc3ccccc32)cc(C)c1O (stereo unspecified) | -22%

Three entries already listed, sorted by length of the SMILES, smallest number first.
SMILES | VDR inhibitor
CCOC(=O)CNc1nc(Cl)nc(Nc2ccc(OC)cc2OC)n1 | 1%
O=C(Nc1ccnn1C1CCN(C2CCC2)CC1)c1cccc(F)c1 | -6%
CCOP(=O)(OCC)c1nc(/C=C/c2ccccc2)oc1NCc1ccccc1 | 10%

Individual results from the list:
O=C(c1ccccc1)c1ccc2nc(-c3ccc(NC(=O)c4ccccc4Br)cc3)[nH]c2c1 | VDR inhibitor: 7%
O=C(Nc1ccnn1C1CCN(C2CCC2)CC1)c1cccc(F)c1 | VDR inhibitor: -6%
COC(=O)C(NC(C)=O)(Nc1cccc(C)n1)C(F)(F)F (stereo unspecified) | VDR inhibitor: 10%
CCOc1ccc(NC(=O)CN2C(=O)NC3(CCCC3)C2=O)cc1S(=O)(=O)N1CCCCC1 | VDR inhibitor: -2%
CCCCCC1CCC(c2ccc(C(N)=O)cc2)CC1 (stereo unspecified) | VDR inhibitor: -7%
COc1cc(CC2C(=O)Nc3ccccc32)cc(C)c1O (stereo unspecified) | VDR inhibitor: -22%
CC1Cc2ccccc2N1C(=O)c1cnc2n(c1=O)CCS2 (stereo unspecified) | VDR inhibitor: 12%

(more compounds)
SMILES | VDR inhibitor
COc1ccc(CNCc2ccc3c(c2)OCO3)cc1Br | -2%
O=C(Cc1cccc(NC(=O)C2CCN(C(=O)c3ccccc3)CC2)c1)Nc1cccc(C(=O)N2CCOCC2)c1 | -8%
COCC(=O)Nc1ccc(C(C)C)cc1 | 11%
O=C(Nc1ccc(NS(=O)(=O)c2ccccc2)cc1)c1ccccc1Cl | -4%
COCCOC(=O)C1=C(C)NC2=C(C(=O)CC(C)(C)C2)C1c1ccc(N(C)C)cc1 (stereo unspecified) | -1%
CC(C)CC(=O)N1CCN(S(=O)(=O)c2ccc3ccccc3c2)CC1 | 0%
NC1=NC[C@H](Cc2ccccc2)N1CCc1cccc(F)c1 | -16%
COc1cc(CN(C(=S)NCC(=O)NC2CCCC2)C2CCCC2)cc(OC)c1OC | -11%
COc1cccc(C(=O)n2nc(-c3cccnc3)nc2NCc2ccc(F)cc2)c1 | -2%
O=C(/C=C/c1ccco1)Nc1ccc2c(c1)OCO2 | 2%
O=C(CCSc1nc2ccccc2o1)N1CCOCC1 | ?
COc1ccccc1OCc1nnc(SCC(N)=O)n1-c1ccccc1 | -6%
Cc1ccc(CN(CC(=O)NCCc2ccccc2)C(=O)c2csnn2)cc1 | 7%
COc1ccc(N2CCN(C(=O)c3ccc(OCc4c(C)noc4C)c(OC)c3)CC2)cc1 | 20%
O=C(CN(C(=O)Cn1nnc(-c2ccc(F)cc2)n1)c1cccc(F)c1)NC1CCCC1 | 7%

Sorted by value in VDR inhibitor (lowest first): 3 from the list above
SMILES | VDR inhibitor
COc1ccccc1OCc1nnc(SCC(N)=O)n1-c1ccccc1 | -6%
COc1ccc(CNCc2ccc3c(c2)OCO3)cc1Br | -2%
Cc1ccc(CN(CC(=O)NCCc2ccccc2)C(=O)c2csnn2)cc1 | 7%

(further entries)
SMILES | VDR inhibitor
Nc1nonc1-c1nc2ccccc2n1CC(=O)N1CCCCC1 | 1%
CN(C)c1ccc(CNc2ncnc3sccc23)cc1 | 14%
Cc1ccc(C(=O)NN(C)c2nc3ccccc3nc2C(F)(F)F)cc1 | 15%
CN1/C(=C\C(=S)NC(=O)c2ccccc2Cl)C(C)(C)c2ccccc21 | 16%
COc1cc(CNCc2ccco2)cc(OC)c1O | -14%
Cc1ccccc1CN1CCN(S(=O)(=O)c2ccc(F)cc2)CC1 | -24%
Cc1ccc(NC(=O)Cc2nc(COC(=O)Cc3cccc(C(F)(F)F)c3)cs2)cc1 | 1%
CCn1nc(NS(=O)(=O)c2ccc([N+](=O)[O-])cc2)c2cc3ccccc3nc21 | -23%
COc1cccc(-c2csc(N3CCN(CC(=O)NNC(=O)c4ccc(Br)cc4)CC3)n2)c1 | -7%
CC(C)CN(C(=O)COC(=O)c1cncc(Br)c1)c1c(N)n(Cc2ccccc2)c(=O)[nH]c1=O | -21%
CC(=O)Nc1cccc(NC(=O)C2CCCN2C(=O)Nc2ccc(Cl)cc2)c1 (stereo unspecified) | -21%
CCN(CC)c1ccc2c(Nc3ccccc3)c(C=O)c(=O)oc2c1 | -6%
COc1ccc(C(=O)Nc2ccccc2NC(=O)c2ccc(OC)cc2)cc1 | -7%
Cc1nn(CCC(=O)NNC(=S)Nc2ccc(Cl)cc2)c(C)c1[N+](=O)[O-] | 7%
COc1ccc(-c2c[nH]c(=O)[nH]c2=O)cc1OC | -3%
CN1CCN(c2cnn(-c3ccccc3)c(=O)c2Br)CC1 | 9%
Cc1ccccc1C(=O)c1c[nH]c(C(=O)NCc2cccs2)c1 | -7%
O=C1c2ccccc2C(=O)N1CCn1ccnc1 | -1%
Cc1ccc(S(=O)(=O)Nc2cc(C(=O)NCCN(C)C)ccc2N2CCCCC2)cc1 | -2%
COCc1cc(SC2CCCCC2)nc(C)n1 | -3%
COc1cc(C(=O)NCc2nnc(SCC(=O)Nc3ccc4c(c3)OCO4)o2)cc(OC)c1OC | -13%
Cc1cc(C)c2cc(C(=O)N3CCc4ccccc4C3)[nH]c2c1 | 9%
O=C(NCCOc1ccccc1)c1ccccc1SCC(=O)N1CCCC1 | -1%
COc1ccccc1/C=C/C1(C(=O)NC2CCCC2)CC(=O)N1c1ccc(C)cc1 (stereo unspecified) | -3%
CCOC(=O)c1cc2c(=O)n3ccccc3nc2n(C(C)C)c1=NC(=O)c1ccncc1 | -7%
CC1CCN(C(=O)CSCC(=O)Nc2nc(-c3cccs3)cs2)CC1 | -20%
COc1ccc(CN2CCN(Cc3ccco3)CC2)c(OC)c1 | -16%
CC(C)Oc1ccc(C(=O)Nc2cccc(S(=O)(=O)N3CCCC3)c2)cc1 | -3%
CCCCC(c1nnnn1CC1CCCO1)N1CCN(c2nc3ccccc3s2)CC1 (stereo unspecified) | -14%
CC1CCCC(NCC(O)COC(c2ccc(F)cc2)c2ccc(F)cc2)C1C (stereo unspecified) | 10%
CC(C)Nc1nc(NC(C)C)nc(SCCOC(=O)Nc2ccc(Cl)cc2Cl)n1 | -10%
CCOC(=O)CNc1nc(Cl)c(C#N)s1 | 10%
COc1ccc(C(=O)O/N=C(\N)c2ccc(OC)c(OC)c2)cc1 | -13%
CSc1nc(C)c(C(=O)C[n+]2ccc(C)cc2)cc1C#N | -18%
Nn1c(SCC(=O)Nc2ccccc2F)nnc1C1CCCCC1 | 8%
O=S(=O)(Nc1ccc(Cl)cn1)c1cccs1 | 4%
O=C(CN1C(=O)S/C(=C\c2ccccc2)C1=O)NC1CCS(=O)(=O)C1 (stereo unspecified) | -7%
S=C(NCC1CCCO1)NC12CC3CC(CC(C3)C1)C2 (stereo unspecified) | -9%
CNCCCc1[nH]nc(N)c1C#N | -1%
O=C(O)C1CCCCC1C(=O)N1CC=C(c2ccccc2)CC1 (stereo unspecified) | 18%
COc1ccc(NC(=O)c2cc(S(=O)(=O)N3CCc4ccccc43)cn2C)c(OC)c1 | -7%
CCOC(=O)C1=C(C)NC(C)=C(C(=O)OCC)C1C(=O)OCC(=O)N1CCCCC1CC (stereo unspecified) | 5%&6%
CN1CCN(CCCn2cnc3c(=O)oc4ccccc4c32)CC1 | -5%
Cc1ccc(OCC(=O)NNC(=O)c2cccnc2)cc1C | 6%
Cn1c(=O)c2c(ncn2CCOC(=O)C(C)(C)Oc2ccc(Cl)cc2)n(C)c1=O | 0%

Among those listed so far, these contain two or more sulfur atoms:
SMILES | VDR inhibitor
CCCSc1ncc(Cl)c(C(=O)N(Cc2ccc(N(C)C)cc2)C2CCS(=O)(=O)C2)n1 (stereo unspecified) | 14%
CC1CCN(C(=O)CSCC(=O)Nc2nc(-c3cccs3)cs2)CC1 | -20%
O=S(=O)(Nc1ccc(Cl)cn1)c1cccs1 | 4%
O=C(CN1C(=O)S/C(=C\c2ccccc2)C1=O)NC1CCS(=O)(=O)C1 (stereo unspecified) | -7%

(next part)
SMILES | VDR inhibitor
Cc1ccc(CN(C(=O)COc2ccc(F)cc2)C2CCS(=O)(=O)C2)o1 (stereo unspecified) | 9%
Cc1ccc(CNC(C)c2ccccc2)s1 (stereo unspecified) | 15%
COC(=O)C1CCN(C(=O)C2CCN(C(=O)[C@H](C)NS(=O)(=O)c3ccc(C)cc3)CC2)CC1 | -16%
CCn1nc(C)c(NC(=O)c2ccc(Br)o2)c1C | -13%
Cc1ccc(S(=O)(=O)N2CCC(C(=O)N3CCc4ccccc43)CC2)cc1 | -17%
C/C(=N\Nc1ncc(Cl)cc1Cl)c1ccc(N2CCOCC2)cc1 | -5%
CCSc1nc(-c2ccccc2)c(-c2ccccc2)n1CC(O)CO (stereo unspecified) | -10%
O=C(CC(Nc1ccc(F)cc1)c1ccccc1)c1ccccc1 (stereo unspecified) | 11%
COC(=O)CN1C(=O)C(O)(CC(=O)c2ccc(Br)cc2)c2ccccc21 (stereo unspecified) | 1%
CC[C@H](C)[C@H](NC(=O)[C@H](CCCNC(=N)N)NC(=O)[C@H](CCCNC(=N)N)NC(=O)[C@H](CC(C)C)NC(=O)[C@H](Cc1ccccc1)NC(=O)CNC(=O)CNC(=O)[C@@H](N)Cc1ccc(O)cc1)C(=O)N[C@@H](CCCNC(=N)N)C(=O)N1CCC[C@H]1C(=O)N[C@@H](CCCCN)C(=O)N[C@@H](CC(C)C)C(=O)N[C@@H](CCCCN)C(=O)N[C@@H](Cc1c[nH]c2ccccc12)C(=O)N[C@@H](CC(=O)O)C(=O)N[C@@H](CC(N)=O)C(=O)N[C@@H](CCC(N)=O)C(=O)O | 10%
COc1ccc(CCNC(=O)CSc2ccccn2)cc1 | 1%
O=C(O)C1C2C=CC3(CN(Cc4ccco4)C(=O)C13)O2 (stereo unspecified) | ?
O=C(NCCC1=CCCCC1)c1cc(-c2ccncc2)nc2ccccc12 | -2%
COc1cccc(N2C(=O)C3C(C2=O)C2C=CC3C23CC3)c1 (stereo unspecified) | 22%
COc1cc(C(C)=O)ccc1OCC(=O)OC(C)C(=O)c1ccc(F)cc1 (stereo unspecified) | -12%
COc1cccc(Cn2cc(C)cc(NC(=O)NCc3ccccc3)c2=O)c1 | 11%
Cn1cnc(S(=O)(=O)NCc2cccs2)c1 | -13%
COc1ccc(CNC(=O)c2ccc(N(C)S(=O)(=O)c3ccc(C)cc3)cc2)cc1 | 2%
Cc1nc(CSc2nnc(C)s2)cs1 | 8%
CCC(=O)Nc1nnc(C(C)(C)C)s1 | -7%
COc1ccc(NC(=O)Cn2nc(Cc3cccnc3)c3ccccc3c2=O)c(OC)c1 | 24%
COc1ccccc1C(=O)Nc1nc2n(n1)C(c1ccc(F)cc1)C=C(c1ccc(Cl)cc1)N2 (stereo unspecified) | -5%
COc1ccc(C2=C/C(=C\c3ccccc3OC(C)=O)C(=O)O2)cc1 | 2%
COc1ccc(S(=O)(=O)Nc2cccc3c2O[C@H](CN(C)Cc2ccc(C(=O)O)cc2)[C@@H](C)CN([C@H](C)CO)C3=O)cc1 | 6%
CC(C)C1C(C#N)=C(N)Oc2n[nH]c(-c3cccs3)c21 (stereo unspecified) | -7%
Cc1c(/C(O)=C2/C(=O)C(=O)N(Cc3cccnc3)C2c2ccccn2)cnn1-c1ccccc1 (stereo unspecified) | 3%
COc1ccc(-c2csc3ncnc(Nc4cccc(F)c4)c23)cc1 | 14%
O=C(Oc1ccc(Br)cc1C(=S)N1CCOCC1)c1cccc([N+](=O)[O-])c1 | ?
CC(=O)N1c2ccccc2C(=O)C1N1CCCCC1 (stereo unspecified) | -1%
COc1cccc(N2CCN(c3ccc4nnc(CCC(=O)Nc5ccc(F)cc5F)n4n3)CC2)c1 | -19%
CSCCC(=O)N1CCC(CCC(=O)NC2CC2)CC1 | 0%
CCOC(=O)c1nnn(CC(=O)Nc2ccccc2)c1C(=O)OCC | -1%
COc1ccc(CCNC(=O)CCC(=O)Nc2nnc(C(C)C)s2)cc1OC | 7%
CC(C)c1ccc(N2C(=O)CC(NNC(=O)c3ccccc3Cl)C2=O)cc1 (stereo unspecified) | 18%
CC(C)(C)NC(=O)C1(N2C(=O)c3ccccc3C2=O)CCCC1 | -4%
CC1/C(=N/O)CC(c2ccccc2)NC1c1ccccc1 (stereo unspecified) | 11%
CC1(C)Cc2ccccc2/C(=C/C(=O)N2CCCCCC2)N1 | 4%
O=C(CSc1nc(-c2ccccc2)nc2ccccc12)Nc1nccs1 | 1%
COc1ccc(-c2c(C#N)c(SCC(N)=O)nc3c2CCCC3)cc1 | 7%

Compound activity from PubChem.
